KAT2A inh: blocks human GCN5L2 histone acetyltransferase; GCN5L2 HAT assay, ThioGlo1 CoA-SH fluorescence; Potency, µM (titrated, usually from 58.9 µM), inactives show at the highest dose activity change, negative = inhibition, hits mostly inhibitors; hit rate 0.21% among 390,000; AID 504327; active means well fitted inhibition curve with a large enough effect
Target sequence (Q92830 whole entry, looked up): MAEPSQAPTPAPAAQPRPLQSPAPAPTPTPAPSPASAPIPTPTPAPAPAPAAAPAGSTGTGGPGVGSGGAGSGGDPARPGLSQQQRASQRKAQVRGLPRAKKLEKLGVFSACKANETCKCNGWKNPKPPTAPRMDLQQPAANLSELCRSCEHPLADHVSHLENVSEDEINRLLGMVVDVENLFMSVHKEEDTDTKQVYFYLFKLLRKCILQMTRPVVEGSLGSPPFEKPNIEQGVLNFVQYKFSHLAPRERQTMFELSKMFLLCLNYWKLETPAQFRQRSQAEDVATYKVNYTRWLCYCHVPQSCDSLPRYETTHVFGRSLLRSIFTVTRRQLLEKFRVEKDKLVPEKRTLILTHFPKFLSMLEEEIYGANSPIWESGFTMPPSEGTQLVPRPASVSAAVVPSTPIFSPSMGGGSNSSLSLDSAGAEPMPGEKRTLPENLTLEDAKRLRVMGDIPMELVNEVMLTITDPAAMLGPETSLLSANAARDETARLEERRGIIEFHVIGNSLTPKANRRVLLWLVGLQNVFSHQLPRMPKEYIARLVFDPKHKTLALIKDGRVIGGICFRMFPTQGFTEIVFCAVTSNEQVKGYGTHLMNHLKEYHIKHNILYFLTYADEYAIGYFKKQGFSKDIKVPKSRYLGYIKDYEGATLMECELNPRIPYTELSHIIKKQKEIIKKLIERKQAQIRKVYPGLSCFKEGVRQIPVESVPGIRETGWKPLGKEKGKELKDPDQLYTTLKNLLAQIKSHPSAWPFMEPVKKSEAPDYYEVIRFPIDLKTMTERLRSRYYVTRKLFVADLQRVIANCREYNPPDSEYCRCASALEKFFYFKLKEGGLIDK
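qHTS, 1536-well. 20nM enzyme, pH 7.5 HEPES/EDTA/Tween-20 buffer; 15 min compound preinc., RT. Start: 75uM H3(1-25), 70uM AcCoA, 50uM ThioGlo1. Read Ex340/Em540 at t=0 (autofluorescence flag) and t=20 min.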
Starred values were filed as active, the others as inactive; & = joins results of further samples; [ ] = another dose, or the depositor's remark. On the % scale 0 is the no-effect control and ±100 the full control effect; potency means the concentration at half of the fitted maximal effect. The list is partial, and most or all hits are left out here.

structure	KAT2A inh
COc1ccc(NC(=S)NN2C(C)CCCC2C)cc1 (stereo not given)	3%
Cc1nn(-c2ccccc2)c(OC(=O)c2ccccc2)c1S(=O)(=O)c1ccccc1	-11%
Cc1ccc(CN(C)C(=O)c2c(C)nn(-c3ccccc3)c2C)cc1	-1%
COc1ccc(N(Cc2cc3ccc(C)cc3[nH]c2=O)C(C)=O)cc1	-5%
O=S(=O)(c1ccc(Cl)nc1)N(Cc1ccccc1)Cc1ccccc1	-10%
N[C@H]1C(O)O[C@H](CO)[C@@H](O)[C@@H]1O (stereo not given in full)	3%
CC(C)Cn1c(-c2ccc(S(=O)(=O)N3CCOCC3)cc2)csc1=Nc1cc(Cl)ccc1Cl	0%
O=C(Nc1ccccc1)c1nc2ccccc2s1	-5%
O=C(Nc1cccn(Cc2c(F)cccc2Cl)c1=O)NC1CCCCC1	-1%
O/N=C/c1cc(Br)ccc1OCc1cccc(F)c1	32%[activator]
CC[C@@H](Nc1ncnc2c1oc1ccccc12)C(=O)O	2%
COc1ccc(CN2CCNC(=O)C2CC(=O)O)c(OC)c1 (stereo not given)	1%
O=C(N/C(=C/c1ccc(Cl)cc1)C(=O)N1CCCCC1)c1ccco1	-1%
Cc1ccccc1C(=O)NC1CCN(CC(=O)NCc2ccccc2)CC1	-7%
Cc1ccc(C(=O)NCCC(=O)NCc2cc(=O)n(C)c(=O)n2C)cc1	-2%
Cc1cccc(-c2n[nH]c(S(C)(=O)=O)c2C#N)c1	-1%
CC(C)N(C(=O)C[n+]1ccsc1N)c1ccccc1	-5%
Cc1cccc(NS(=O)(=O)c2ccc3c(c2)NC(=O)CC(=O)N3)c1	-5%
CN(C)S(=O)(=O)c1ccc(NC(=O)CN2CCCCCC2)cc1	-16%
O=C(C1CC(=O)N(c2ccccc2)C1)N1CCN(c2ccccc2)CC1 (stereo not given)	3%

Looked up one by one from the list above:
structure	KAT2A inh
O/N=C/c1cc(Br)ccc1OCc1cccc(F)c1	32%[activator]
COc1ccc(NC(=S)NN2C(C)CCCC2C)cc1 (stereo not given)	3%
Cc1cccc(-c2n[nH]c(S(C)(=O)=O)c2C#N)c1	-1%

More results
structure	KAT2A inh
COc1ccc(S(=O)(=O)N2CCCCCC2)cc1C(=O)Nc1ccc(C(=O)N(C)C)cc1	0%
Cc1nnc(SCC2=C(C(=O)O)N3C(=O)[C@@H](NC(=O)Cn4cnnn4)[C@H]3SC2)s1	-3%&2%&17%
CN(Cc1cccc2cnccc12)C(=O)c1cc(COc2ccc(F)cc2Cl)on1	-9%
CCc1ccc(S(=O)(=O)n2ccnc2)cc1	2%
COc1ccc(C2=NN(C(=O)/C=C/c3ccccc3)C(c3ccccc3)C2)c(OC(C)=O)c1 (stereo not given)	-22%
Cc1ccc(NC(=O)CSCC(=O)Nc2cccc3ncccc23)cc1	-19%
CCCSc1nc2c(=O)[nH][nH]c(=O)c2n1Cc1ccccc1	-1%
CCOC(=O)c1ccc(NC(=O)CCC2COc3ccccc3O2)cc1 (stereo not given)	-6%
CCCC(=O)N(c1ccccc1)C1C=CS(=O)(=O)C1 (stereo not given)	-3%
COc1ccc(NC(=O)C2CCCCN2N)cc1OCC(C)C (stereo not given)	1%
CN(C)c1nc2ccccc2c(N)c1-c1ccccc1	-4%
Cc1c2cnn(-c3ccccc3)c(=O)c2c(C)n1CCCC(=O)Nc1cccc(F)c1	-7%
O=C(c1cccs1)N1CCN(Cc2ccccc2[N+](=O)[O-])CC1	1%
CCCn1c(CCc2ccccc2)n[nH]c1=S	2%
CC(C)(C)NCC(O)c1ccc(O)c(CO)c1 (stereo not given)	0%&-4%&-15%
Cc1cccc(C)c1Nc1nnc(SCC(=O)NCCCN2CCCC2=O)s1	-3%
O=C(Cn1nc(-c2ccccc2)c2ccccc2c1=O)Nc1ccccn1	-2%
Clc1cc(Cl)c(Cl)c(Cl)c1Cl	-2%
Cc1ccc(S(=O)(=O)N2CCN(C(=O)C3CC3C)CC2)c(C)c1 (stereo not given)	-3%
O=C(C1CCN(S(=O)(=O)c2cccs2)CC1)N1CCN(c2cccc(Cl)c2)CC1	-4%

Going on with the list.
structure	KAT2A inh
Cc1cc2nsnc2c(S(=O)(=O)N2CCN(C)CC2)c1C	-4%
COC(=O)C1=C(C)N(Cc2ccco2)C(=O)N[C@H]1c1ccccc1	-3%
Cc1ccc(C)n1NC(=O)c1ccccc1[N+](=O)[O-]	-5%
COC(=O)c1ccc(CNC(=O)Cn2cnc3c(NCc4ccccc4)ncnc32)cc1	-11%
CC(C)NC[C@@H](O)COc1ccc(CC(N)=O)cc1	-6%
CCn1cc(/C=C/C(=O)Nc2c(C)nn(Cc3ccccc3C)c2C)cn1	1%
Cc1ccc(S(=O)(=O)N2CCCCC2)cc1NC(=O)CCN1C(=O)C2CC=CCC2C1=O (stereo not given)	-13%
O=C(Nc1nc2c(Cl)cccc2s1)c1ccc(Br)o1	-1%
CCN1CCN(Cc2ccc(NC(=O)CC3Oc4ccc(C)cc4NC3=O)cc2)CC1 (stereo not given)	-3%
COc1ccc(C(=O)OCC(=O)NC(=O)CCSc2ccccc2)cc1	12%
COc1cc(OC)c(NC(=O)CN(C)S(=O)(=O)c2ccc(-c3ccc(=O)[nH]n3)s2)cc1Cl	-16%
COc1cc(C(=O)N2CCN(C)C(C)C2)ccc1OC1CCN(C(C)=O)CC1 (stereo not given)	-3%
O=C(CCC(=O)N1CC2CCCN2c2ccccc21)NCc1ccc(Cl)cc1 (stereo not given)	1%
Cc1noc(C)c1C(=O)Nc1ccc(C#N)cc1	-17%
O=C(CCCSc1nc2ccccc2[nH]1)Nc1ccccc1	-12%
O=C(CNS(=O)(=O)c1ccccc1)Nc1cccc([N+](=O)[O-])c1	-6%
COC(=O)C1=C(C)OC(N)=C(C#N)C1c1ccsc1 (stereo not given)	-1%
CN1CCN(C2=Nc3cc(Cl)ccc3Nc3ccccc32)CC1	-5%
Cc1ccc(C(=O)N(CC(C)C)c2c(N)n(Cc3ccccc3)c(=O)[nH]c2=O)o1	4%
CCOC(=O)C(Cc1c[nH]c2ccccc12)NC(=O)COc1ccc(Cl)cc1 (stereo not given)	-1%

Next records.
structure	KAT2A inh
COc1ccc(Cl)cc1N1C(=O)C2CCCN2C1c1ccccc1F (stereo not given)	0%
O=[N+]([O-])c1ccc(NCCNc2ccc(Cl)nn2)cc1	-6%
COC(=O)Nc1ccc2c(c1)OCO2	0%
Cc1ccc(NC(=O)NCCc2ccc(S(N)(=O)=O)cc2)cc1	3%
CN1[C@H]2CC(OC(=O)[C@@H](CO)c3ccccc3)C[C@H]1[C@H]1O[C@H]12 (stereo not given in full)	0%[21.4 µM]
CCN(C(=O)Cc1cccs1)c1nnc(-c2cc(OC)c(OC)c(OC)c2)s1	-3%
Cc1cc(Nc2ccc(Cl)cc2)nc(N2CCOCC2)n1	-5%
O=C(O)CCc1ccc(S(=O)(=O)N2CCOCC2)cc1	1%
CCOC(=O)C1CCCN(CCC(=O)Nc2ccccc2C)C1 (stereo not given)	-6%
O=C1c2oc3ccccc3c(=O)c2C(c2cccnc2)N1CCCN1CCOCC1 (stereo not given)	-6%
CC1(C)[C@H](C(=O)O)N2C(=O)C[C@H]2S1(=O)=O	-22%
Cc1cccc(OCc2nnc(SC(C)C(=O)Nc3ccc(N4CCOCC4)cc3)o2)c1 (stereo not given)	-2%
COc1cccc(CNC(=O)C2CCC(CNS(=O)(=O)c3cccc4cccnc34)CC2)c1 (stereo not given)	-25%
CCC1(c2ccccc2)NC(=O)N(CC(=O)NCc2ccc(OC)cc2)C1=O (stereo not given)	-3%
C=CCNc1cc(C)oc(=O)c1C(=O)CCC	-12%
Cc1ccc(C(=O)COC(=O)CN2C(=O)C3C4C=CC(C4)C3C2=O)cc1[N+](=O)[O-] (stereo not given)	-6%
Cc1cc(C)n2ncc(C(=O)Nc3ccc(Cl)c(Cl)c3)c2n1	1%
CC(=O)N1CCN(Cc2nc3cc(NC(=O)Nc4ccccc4)ccc3n2C)CC1	-13%
C/C(CC(=O)NCc1ccco1)=N\NC(=O)Cc1ccc(Cl)cc1	-50%
CCSc1ncnc2sc3c(c12)CCC3	0%

(next part)
structure	KAT2A inh
Cc1ccc(S(=O)(=O)Nc2ccc(NC(=O)c3ccc(F)cc3)cc2)cc1	-2%
O=C(CCCCCn1c(=S)[nH]c2ccsc2c1=O)NC1CCCCC1	-4%
CC(=O)c1cc(C#N)c(SCCC(C)C)nc1C	-2%
CC(=O)Nc1nnc(C2=COCCO2)o1	-6%
Cn1c2ccccc2c2nnc(NN)nc21	0%
Cc1ccc(S(=O)(=O)N2CC(=O)N3CCN(CCN)C3C2)cc1 (stereo not given)	-1%
Cn1nc(C(=O)Nc2ccc(Cl)c(S(=O)(=O)N3CCOCC3)c2)c2ccccc2c1=O	0%
Cc1ccc(-c2csc(NC(=S)NC(=O)c3ccco3)n2)cc1	-1%
Cc1ccc(S(=O)(=O)N(CC(=O)Nc2ccc(C(N)=O)cc2)C(=O)N2CCN(C)CC2)cc1	18%
COc1ccccc1NC(=O)c1sc2ncn(Cc3ccccc3C)c(=O)c2c1C	2%
O=S(=O)(/C=C/c1ccccc1)N1CCN(c2nc(-c3cccnc3)nc3ccccc23)CC1	-1%
COc1ccc(CCNC(=O)Cn2c(=O)[nH]c3ccsc3c2=O)cc1OC	-1%
Cc1ccc(C(=O)C2CCN(C(=O)c3ccc(C)cc3)CC2)cc1	-3%
COc1ccc2c(CCNC(=O)CN3C(=O)c4ccccc4C3=O)c[nH]c2c1	-4%
CCOC(=O)C1CCCN(C(=O)c2cccc(S(=O)(=O)N3CC(C)OC(C)C3)c2)C1 (stereo not given)	-7%
COc1cc2c(cc1OC)CN(C(=O)c1ccc(Br)o1)CC2	-1%
CCCCc1nnc(NC(=O)C(=O)OCC)s1	16%
CC(=O)c1ccc(C(=O)NC2CC(C)(C)Cc3c2cnn3-c2ccccc2)cc1 (stereo not given)	-22%
COc1ccc(NC2=CC(=O)CC(c3ccccc3)C2)cc1 (stereo not given)	-4%
CCOCCCNC(=O)/C=C1\Sc2ccccc2N(Cc2ccccc2F)C1=O	-5%

Sorted by value in KAT2A inh (highest first): 4 of the compounds above
SMILES | KAT2A inh
Cc1ccc(S(=O)(=O)N(CC(=O)Nc2ccc(C(N)=O)cc2)C(=O)N2CCN(C)CC2)cc1 | 18%
COc1ccccc1NC(=O)c1sc2ncn(Cc3ccccc3C)c(=O)c2c1C | 2%
Cc1ccc(S(=O)(=O)N2CC(=O)N3CCN(CCN)C3C2)cc1 (stereo not given) | -1%
CC(=O)c1ccc(C(=O)NC2CC(C)(C)Cc3c2cnn3-c2ccccc2)cc1 (stereo not given) | -22%

Continuation:
structure	KAT2A inh
CC(C)CCNC(=O)C(c1ccc(O)cc1)N(Cc1ccco1)C(=O)CCC(=O)Nc1nccs1 (stereo not given)	-4%
O=C(COC(=O)CCOc1ccccc1)NCc1ccco1	-15%
Cc1cc(C)c(OCC(=O)NCC(C)(C)N2CCOCC2)c(C)c1	-16%
CCN(CC(=O)Nc1ccc(NC(C)=O)cc1)C(=O)c1ccc(COc2ccccc2)o1	3%
COC(=O)c1cc(OC)c(OC)cc1NC(=O)c1cc(-c2ccccc2)nc2ccccc12	4%
CCOC(=O)c1cn(CC)c2ccc(S(=O)(=O)N3CCC(C)CC3)cc2c1=O	-1%
NNC(=O)COc1ccccc1F	1%
N#CC1CN(C(c2ccccc2)c2ccccc2)C1	-2%
NNC(=O)Cn1cnc2ccccc21	-15%
CC(C)(OC(=O)c1cccs1)c1cc2ccccc2c(=O)o1	-2%
O=C(Nc1nccs1)NC(C(F)(F)F)C(F)(F)F	-3%[0.501 µM]
CCOC(=O)N1CCN(C(=O)C2CCN(C(=O)c3cc(OC)cc(OC)c3)CC2)CC1	-4%
CC(O)C(=O)N/N=C/c1ccccc1C(=O)O (stereo not given)	-8%
CN(CCC#N)C(=O)COC(=O)c1ccc2c(=O)n3c(nc2c1)CCC3	-8%
C=C1CCN(C(Cc2ccccc2)C(=O)OC)S(=O)(=O)c2ccc(F)cc21 (stereo not given)	-5%
Cc1cccc(/C=N/NC(=O)c2cccc(Cl)c2)n1	12%
CCN(c1ccccc1)S(=O)(=O)c1cc(-c2onc(C)c2C)ccc1OC	-5%
C[C@@H](N)C(=O)NC[C@H]1O[C@@H](n2cnc3c(N)ncnc32)[C@H](O)[C@@H]1O	-6%
CCO[C@@H]1OC(C(=O)O)=C[C@H](c2ccc(C(F)(F)F)cc2)[C@H]1CCCO	-3%
O=C(CSCc1c(F)cccc1Cl)NNC(=S)NC1CCCCC1	-17%

Carrying on.
structure	KAT2A inh
O=C(Nc1c(Cl)cccc1Cl)c1cc(-c2ccc3c(c2)OCO3)on1	4%
CC(=O)OCC(=O)[C@@]12OC(C)(C)O[C@@H]1C[C@H]1[C@@H]3C[C@H](F)C4=CC(=O)C=C[C@]4(C)[C@@]3(F)[C@@H](O)C[C@@]12C	-3%
CC(=O)n1cc(/C=N/NC(=O)c2sc(C)nc2C)c2ccccc21	-12%
O=C(Nc1cccc(S(=O)(=O)NCc2ccco2)c1)c1cc(-c2ccc(F)cc2)nc2ccccc12	-10%
O=C(O)CCC(=O)Nc1cccc(C(=O)Nc2cccc(Cl)c2)c1	-23%

Source: PubChem
